Compound activity deposited in PubChem by Fisher Drug Discovery Resource Center.
NPYLR7 agonist = activates Aedes aegypti NPYLR7 receptor; activation, % at 10 µM; HEK293T NPYLR7/Galpha15, GCaMP6s calcium fluorescence; AID 1259423; actives 0.15% (n = 270,000); in the data active = activation above about 40%;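 also: 0% = vehicle and 100% = reference agonist at the receptor; some compounds past the cut are filed as inactive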
NPYLR7 agonist max-min = recorded beside NPYLR7 agonist, whose call it bears; activation, %; measured here: Max-Min RFU normalised activation; some inactives read as strong as hits;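 span of the calcium signal over five minutes; 0% = vehicle and 100% = native peptide agonist; compound fluorescence can raise it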
Numbers without * were called inactive; & = joins results of further samples. This is a subset; the hit share may differ from the screen's.

Compound,NPYLR7 agonist,NPYLR7 agonist max-min
CN(CC(=O)N1CCc2ccccc21)Cc1nc2ccccc2c(=O)[nH]1,6,3
Cc1ccc(-n2nc3c(c2NC(=O)c2ccc(S(=O)(=O)N(C)C)cc2)CS(=O)(=O)C3)cc1,-1,-2
CCn1c(C2CCNCC2)nn(CCSc2ccccc2)c1=O,21,6
CCCNC(=O)CN(C)Cc1csc2ccccc12,-1,-5
CCOc1ccc(C(=O)NC2(C)CCS(=O)(=O)C2)cc1 (configuration not stated),-1,1
O=C(Nc1nc(-c2cc([N+](=O)[O-])cs2)cs1)c1ccccc1,-3,-2
Cc1ccc(F)cc1S(=O)(=O)NC1CCOc2ccccc21 (configuration not stated),2,-1
Cc1ccc(N2NC(=O)/C(=C/c3ccc4c(c3)n(C)c(=O)n4C)C2=O)cc1Cl,0,-1
Cc1ccc2nc(C)n(C3CCN(C(=O)c4cc(F)c(F)c(F)c4)CC3)c2c1,33,25
C/C=C/C(=O)N[C@H](Cc1ccccc1)C(=O)N1CCC(C(=O)NCc2cccc(OC)c2)CC1,27,31
COC(CNc1cc(N2CCOCC2)nc(N)n1)c1cccs1 (configuration not stated),1,-2
Cc1ncc(-c2ccc(F)cc2)c(C2CCCN(C(=O)Cc3ccc(N4CCNC4=O)cc3)C2)n1 (configuration not stated),4,-5
NC(=O)C1CCCN(C(=O)c2cc3n(n2)CCN(Cc2c(Cl)cccc2Cl)C3=O)C1 (configuration not stated),15,5
Nc1cccc(CN(CC2CCCCO2)C2CC2)c1 (configuration not stated),1,-2
CCOc1cc2c(cc1NS(=O)(=O)c1ccc(Cl)c(C(=O)O)c1)OC(C)C2 (configuration not stated),11,4

Structures above containing a thiophene ring, fused or not (3):
Compound,NPYLR7 agonist,NPYLR7 agonist max-min
CCCNC(=O)CN(C)Cc1csc2ccccc12,-1,-5
O=C(Nc1nc(-c2cc([N+](=O)[O-])cs2)cs1)c1ccccc1,-3,-2
COC(CNc1cc(N2CCOCC2)nc(N)n1)c1cccs1 (configuration not stated),1,-2

Molecules listed so far with four or more nitrogen atoms, in the order listed:
Compound,NPYLR7 agonist,NPYLR7 agonist max-min
CN(CC(=O)N1CCc2ccccc21)Cc1nc2ccccc2c(=O)[nH]1,6,3
Cc1ccc(-n2nc3c(c2NC(=O)c2ccc(S(=O)(=O)N(C)C)cc2)CS(=O)(=O)C3)cc1,-1,-2
CCn1c(C2CCNCC2)nn(CCSc2ccccc2)c1=O,21,6
Cc1ccc(N2NC(=O)/C(=C/c3ccc4c(c3)n(C)c(=O)n4C)C2=O)cc1Cl,0,-1
COC(CNc1cc(N2CCOCC2)nc(N)n1)c1cccs1 (configuration not stated),1,-2
Cc1ncc(-c2ccc(F)cc2)c(C2CCCN(C(=O)Cc3ccc(N4CCNC4=O)cc3)C2)n1 (configuration not stated),4,-5
NC(=O)C1CCCN(C(=O)c2cc3n(n2)CCN(Cc2c(Cl)cccc2Cl)C3=O)C1 (configuration not stated),15,5

(list continues)
Compound,NPYLR7 agonist,NPYLR7 agonist max-min
S=c1nc(-c2ccccc2)[nH]n1CNc1ccccn1,-5,-8
CCCCCCCCS(=O)(=O)N1CCCC(C(=O)NC2CCCC[C@H]2NC(=O)c2ccccc2)C1 (some centres not stated),25,23
CCCCN(CC(=O)N(CCc1ccc(OC)c(OC)c1)Cc1cccs1)C(=O)Nc1cccc(Br)c1,1,7
CC(C)N(C)C(=O)C(C)S(=O)(=O)CC1CCCCC1 (configuration not stated),4,1
CC(OC(=O)c1cc2c(s1)-c1ccccc1CC2)C(=O)Nc1ccc(C(N)=O)cc1 (configuration not stated),-1,21
CN(Cc1nc2ccccc2n1C)C(=O)[C@@H](N)Cc1cnc[nH]1,3,3
CCOC(=O)c1c(NC(=O)c2ccc(F)c(F)c2F)c(-c2cccc(F)c2)cn1Cc1ccccc1,2,-10
Cc1c(N=Cc2cc(Br)c(Br)o2)c(=O)n(-c2ccccc2)n1C,1,-2
COc1ccc(CN(Cc2ccco2)C(=O)C(C)C)cc1OCc1nc(CO)cs1,15,19
CCOc1ccc(-c2ccc(=O)n(CCNC(=O)Nc3ccc(F)c(Cl)c3)n2)cc1,4,3
CN(C)CCN(Cc1ccccc1)C(=O)c1cc(-c2cccn2C)nn1-c1cccc([N+](=O)[O-])c1,4,0
COc1ccccc1CC(=O)N1CCC(n2cnc3ccccc32)CC1,6,12
CC(=O)[C@@]1(O)CC[C@H]2[C@@H]3C[C@H](C)C4=CC(=O)CC[C@]4(C)[C@H]3CC[C@@]21C,-2,-5
Cc1ccc(-n2c(SC(C)C(N)=O)nc3ccccc3c2=O)nc1 (configuration not stated),5,1
CC(C)(C)c1nnc(N2CCCCC2)[nH]c1=O,10,7
Cc1ccc(Cl)cc1N1CCN(c2ccc(S(=O)(=O)C(C)C)nn2)CC1,-4,-4
CC(C)N(Cc1ncc[nH]1)CC1CCC(=O)N1 (configuration not stated),17,12
CCOc1ccccc1C1Nc2ccccc2N=C2CC(C)(C)CC(=O)C21 (configuration not stated),7,9
CC1CN(c2cc(Cl)nc(SCC(=O)NCCN3CCCCC3)n2)CCN1C(=O)c1ccccc1F (configuration not stated),1,-6
C=CCN(CCc1ccccc1)C(=O)NC1CCN(C(=O)C(C)C)CC1,9,8
COCCn1cc(NC(=O)Nc2cccc(Cl)c2)c2ccccc21,12,3
C=CCNC(=O)C(C1CCCC1)N1CCN(C(=O)c2ccc(OC)cc2)CC1 (configuration not stated),-9,-11
COc1ccccc1CCC(=O)N1CCCC(C(=O)c2cccc(OC(C)C)c2)C1 (configuration not stated),6&-4,5&-6
O=C(Nc1ccc2c(c1)CN(Cc1ccon1)CC2)C1(c2ccccc2)CC1,2,1
Cc1ccc(Cn2ccnc2CN(Cc2ccco2)C(=O)C(C)C)cc1,-9,-9
CC(C)O[C@H]1CN(C(=O)c2ccc(CSc3ncccn3)o2)C[C@@H]1O,1,-1
COc1ccc(OCCNC(=O)c2cncn2-c2cccc(-c3cccc(OC(F)(F)F)c3)c2)cc1,4,-1
Cc1ccccc1C(C)Nc1cnn(C(C)(C)C)c(=O)c1Cl (configuration not stated),-23,-22
O=C(NC1CC1)c1csc(CSc2nnc(-c3ccco3)n2-c2ccc(Cl)c(Cl)c2)n1,-4,7
O=C(Nc1cc2c(cc1Cl)OCO2)C1CCN(C(=O)/C=C/c2ccccc2)CC1,1,0
CCc1ccc(NC(=O)Cn2c(=O)n(Cc3ccco3)c(=O)c3oc4ccccc4c32)cc1,5,4
CN(C)c1ccc(NC(=O)c2ccccc2Cl)cc1CN(CC1CCCO1)C(=O)NC(C)(C)C (configuration not stated),34,33
N#CCCN(C(=O)CN1CCN(c2ccccc2O)CC1)c1ccc(F)cc1,7,2
O=C(c1cncn1-c1ccc(F)cc1)N1CCN(S(=O)(=O)c2ccccc2)CC1,6,-1
O=C(c1ccc(S(=O)(=O)NCCc2ccccc2)o1)N1CCOCC1,-8,-8
CCOc1ccc(C2NC(=O)NC(C)=C2C(=O)OCC2CCCO2)cc1 (configuration not stated),-3,-4
O=C(CCn1[nH]c(=O)c2ccccc2c1=O)ON1CCOCC1,-19,-26
Clc1ccccc1OCCNc1nc(NCC2CC2)nc2ccsc12,6,5
CCCc1noc(C(C)S(=O)(=O)Cc2c(C)noc2C)n1 (configuration not stated),-3,-4
COc1ccc(CCN(Cc2ccc(C)s2)C(=O)CN(C(=O)Nc2ccc(Cl)cc2Cl)C(C)C)cc1OC,1,-6
CC1(Cc2ccc(Cl)cc2)C(=O)Nc2cc(-c3ccccc3Cl)ccc21 (configuration not stated),1,0
Cc1cc(C)c(/C=C2\C(=O)Nc3ccccc32)[nH]1,27,-32
CC(C)c1ccc(CN2CCCC3(CCN(C(=O)C4CCOCC4)C3)C2)cc1 (configuration not stated),18,10
CN(Cc1ccccc1)c1ncc2c(n1)CC(C)(C)CC2NC1CCOCC1 (configuration not stated),4,-1
COC(=O)C(c1ccc(F)cc1)N1CCN(C(=O)c2ccc(-c3ccc(F)cc3)o2)CC1 (configuration not stated),0,-2
CCOC(=O)c1ccc2c(c1)nc(SCc1cc(F)ccc1Br)n2Cc1ccco1,-3,-7
O=C(Cc1ccc([N+](=O)[O-])cc1)Nn1cnc2c(cnn2-c2ccccc2)c1=O,2,-2
CCOc1ccc(N2CCn3c2nnc(C(=O)NCCCO)c3=O)cc1,4,1
N#Cc1c(F)cccc1NCC12CC3CC(CC(C3)C1)C2,-6,-6
CC(=O)C(C)Sc1cc(C(C)(C)C)ccc1C (configuration not stated),0,-5
Cn1c(SCC(=O)NC2CCCCC2)nc2sc3c(c2c1=O)CCCC3,4,-1
CCOC(=O)c1nc2ccccc2nc1N1CCCN(C(=O)c2ccc(C(F)(F)F)cc2F)CC1,3,0
O=C(CCc1nnc(CCC2CCCCC2)o1)NCc1ccccc1-n1cncn1,-2,-2
COCCN1CCCC[C@]2(C[C@H](CO)[C@H](c3ccccc3)N2C(=O)CC(C)(C)C)C1=O,3,8
CN(C)C(=O)c1ccc(-c2cnc3c(c2)CCN3CCCc2ccccc2)cc1,25,18
CCOC(=O)c1cc(-c2ccc(N3CCN(C(=O)c4c(C)noc4C)CC3)cc2)n(-c2ccccc2OC)n1,5,4
Cc1cn2c3c(=O)n(Cc4cccc5ccccc45)c(=O)n(C)c3nc2n1CCCl,2,4
C=CCC1(OC)CCN(C(=O)c2coc(Cn3cnc4ccccc43)n2)CC1,-4,-17
CC(=O)Nc1ccc(CN2C(=O)C(C)(C)ON=C2c2cccc(F)c2)cc1,5,6
CN1C[C@@H]2CC[C@H](CC1=O)N2C(=O)C1(c2ccc(Cl)cc2)CCC1,-5,-7

Next part
Compound,NPYLR7 agonist,NPYLR7 agonist max-min
Clc1ccc2nc(CSc3ncn[nH]3)cn2c1,-1,-2
CCOC(=O)c1cn[nH]c1S(=O)(=O)NCc1ccccn1,-3,-8
CN(Cc1cccc(C(F)(F)F)c1)Cc1nc(Cc2ccccc2F)no1,28,20
COc1cc(-c2nc(CN(C)C3CCCc4ccccc43)c(C)o2)ccc1F (configuration not stated),-3,-5
Cc1nc(SCC(=O)N2CCOC(C)C2)c2c(=O)n(C)c(=O)n(CC(C)C)c2n1 (configuration not stated),2,2
COc1cccc(Cn2ccnc2CN(CCN(C)C)C(=O)C(C)C)c1,7,11
CC1(C(=O)NS(=O)(=O)c2ccc(Cl)cc2)CCN1C(=O)Cc1cccs1 (configuration not stated),-2,1
COc1ccc(CN2C3CCC2CC(NC(=O)c2ccc(F)cc2F)C3)c(OC)c1 (configuration not stated),14,8
O=C(N[C@H](Cc1ccccc1)C(=O)NCCCOc1cccc([N+](=O)[O-])c1)OCc1ccccc1,-8,-10
OCc1cn(-c2ccccc2Cl)nn1,-1,-1
COc1ccc(CN(CCc2c[nH]c3ccccc23)C(=O)CN(CC(C)C)C(=O)CCc2ccccc2)cc1OC,17,19
CONC(=O)c1cc(S(=O)(=O)N(C)C(C)C)ccc1Cl,2,-2
Cc1cccc(Nc2nc3nonc3nc2N/N=C\c2cc([N+](=O)[O-])ccc2O)c1C,-4,-7
CN(C)C(=O)c1ccc(-c2ccc3c(c2)OCCO3)s1,-6,4
CCN1CCc2ccc(OCC(=O)NCc3ccccc3)cc2C1c1ccccc1 (configuration not stated),4,2
COc1ccc(C2NC(C(=O)O)Cc3c2[nH]c2ccccc32)cc1CN1CCN(c2ccc(F)cc2)CC1 (configuration not stated),15,11
O=C(NCc1ccc2c(c1)OCO2)c1csc(CSc2nnc(-c3cccnc3)n2-c2ccccc2F)n1,-4,0
CCOC(=O)c1c(NC(=O)C2CC2)sc(C(=O)Nc2ccc(OC)cc2OC)c1C,-5,2
CC1(C)CN(C(=O)c2cccc(F)c2)C2(S1)C(=O)N(Cc1ccccc1Cl)c1ccccc12 (configuration not stated),-8,-3
CCN(CC1=CCN(Cc2cnc[nH]2)CC1)C(=O)c1ccco1,1,16
Nc1ncnc(Nc2ccc(Oc3ccc(Cl)cc3)cc2)c1[N+](=O)[O-],-5,-7
Cc1nc(C(=O)N2CC[C@H](NS(=O)(=O)c3cn(C)cn3)C[C@H]2C(=O)N[C@H](CC(C)C)C(N)=O)cs1,-7,-15
CC(C)C1CN(C(=O)c2ccc(=O)[nH]c2)CCCN1CC1CC1 (configuration not stated),2,-26
Cc1nc(C)c(C(=O)NCc2cccnc2N(C)CCc2ccccn2)s1,4,2
CS(=O)(=O)Oc1ccc(CN(Cc2ccccc2)C(=O)Nc2ccccc2C(F)(F)F)cc1,18,18
COc1ccccc1/C=C/CN1CCN(c2nccc3ncccc23)CC1,-4,-3
COc1ccc(/C=C(\C#N)c2nn(CCO)c(N)c2C#N)cc1,0,-4
O=C1NC2(CCN(Cc3ccco3)CC2)Nc2cc(Cl)ccc21,3,17
O=C(CNc1ccc(F)cc1F)N1CCN(S(=O)(=O)c2ccc3c(c2)CCC3)CC1,0,9
CCS(=O)(=O)Oc1cccc(CN(C(=O)c2cccc(F)c2)C2CC2)c1,28,24
CCOC(=O)C1(CCCc2ccccc2)CCN(C(=O)c2ccc3[nH]ccc3c2)CC1,4,0
Cc1ccc2cccc(OC(=O)c3ccc(Cl)cc3)c2n1,6,4
CCC(C(=O)N1CCN(c2nc(C)nc(C)c2Cc2ccc([N+](=O)[O-])cc2)CC1)c1ccccc1 (configuration not stated),-2,1
COc1cc(CN2CCC(=O)NCC2C)cc2c1OCO2 (configuration not stated),21,16
COC(=O)CNC(=O)N1CC[C@@](O)(c2ccccc2)[C@H]2CCCC[C@@H]21,9,6
